Menin MLL FP FL – displaces fluorescein MLL peptide from human menin; FP activity change, % at 61.4 µM; 290,000 tested, under 10 active; Fluorescence polarization, fluorescein-MLL peptide displacement from menin; inconclusive = falling polarisation curve, or a change in total fluorescence; inactive = total fluorescence flat and polarisation flat or rising; no compound was filed as active; the % refers to the polarisation; negative = inhibition;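 also: % of control where 0% means no effect; inhibitors lower the polarisation; unlabelled MLL peptide was the positive control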
gsp antagonist – gsp mutant antagonism. gsp-mutant cells, cAMP HTRF, 30 min; control for the full effect not named in the record. Potency, µM (series often up to 76.9 µM), without a hit: at the highest dose activity change, negative = inhibition, hits mostly inhibitors. 340,000 compounds, 0.4% hits; active = falling curve of any shape with a large fitted effect; inconclusive = falling curve, mostly with a smaller effect; inactive = flat or rising curve; cell line not stated here;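 also: intracellular cAMP measured with PDE inhibitor Ro 20-1724 present during compound exposure; potency is read from the fitted curve at half-maximal effect; % is scaled to controls: 0 for no effect and ±100 for the full control effect; nearly all actives have a fitted effect of over 65% in size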
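Cells in G418 medium, seeded 16-24 h, 37C; buffer exchange to DPBS + 1 mM CaCl2, 0.5 mM MgCl2, 0.05% BSA; cpds in DMSO + […] (300 uM stock), 30 min 37C; HTRF cAMP detection.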
Sfp inh – blocks B. subtilis Sfp PPTase activity; Q9F4F7; Biochemical Sfp PPTase activity, qHTS; Potency, µM, without a hit: max response, negative = inhibition, actives largely listed as inhibitors; 310,000 compounds, 3.5% hits; AID 1490; active = well fitted inhibition curve with a large enough effect; inconclusive = small, poorly fitted or top-dose-only effect, or another doubt; inactive = no such curve, though single readings can be large or run the other way;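 also: the enzyme is Sfp with the accession as filed and its product quenches rhodamine fluorescence; potency is read from the fitted curve at half-maximal effect; 0% = enzyme reaction without inhibitor and -100% = no enzyme wells; top concentration of the series not given in the record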
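Fluorescence-quenching assay with 15 nM Sfp, 5 uM rhodamine-CoA and 12.5 uM BHQ-2-labelled ybbR peptide in pH 7.6 Hepes/MgCl2 buffer. Enzyme was pre-incubated with compound for 15 min at room temperature. Rate was taken from the 30-min fluorescence change (525/598 nm).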
TRPV1 potentiator – potentiators of human vanilloid receptor 1 (TRPV1). Q8NER1. AID 540277. potentiation, % at 8.33 µM. 320,000 compounds, 0.02% hits. TRPV1-expressing cells, Fluo-8 calcium influx, capsaicin EC20 potentiation; host cell line not named in the record; control for the full effect not named in the record; active means potentiation above 80%; inconclusive means 30% to 80%; inactive means below 30%; also: 0% is about no effect
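Fluo-8 calcium influx in TRPV1-expressing cells, kinetic read (ex 480/em 520 nm). Compound added and read 3 min for agonist activity, followed by capsaicin at EC20 final and 2 min further read for enhancement.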
D2 potentiator – potentiates the human D2 dopamine receptor allosterically; P14416; DiscoveRx D2 beta-arrestin cells, luminescence, 90 min; 100% = 57 uM dopamine signal; potentiation, % (no concentration beside the values); 360,000 compounds, 0.23% hits; active = potentiation of 50% or more; inconclusive = 30% to 50%; inactive = 30% or less;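 also: compound concentration not given in the record; tested on top of an EC20 dose of dopamine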
Target sequence (P14416 whole entry, looked up): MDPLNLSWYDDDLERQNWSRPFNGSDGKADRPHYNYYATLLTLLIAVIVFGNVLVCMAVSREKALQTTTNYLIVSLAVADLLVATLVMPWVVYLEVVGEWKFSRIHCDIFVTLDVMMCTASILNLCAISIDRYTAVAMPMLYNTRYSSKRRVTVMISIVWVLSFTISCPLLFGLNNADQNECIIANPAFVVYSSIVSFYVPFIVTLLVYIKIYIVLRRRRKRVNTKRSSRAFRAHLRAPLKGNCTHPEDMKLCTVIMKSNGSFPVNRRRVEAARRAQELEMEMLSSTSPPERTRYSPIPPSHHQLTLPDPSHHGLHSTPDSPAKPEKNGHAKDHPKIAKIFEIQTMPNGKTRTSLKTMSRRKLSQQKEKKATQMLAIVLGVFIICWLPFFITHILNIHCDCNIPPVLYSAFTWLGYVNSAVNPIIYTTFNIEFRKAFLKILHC
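PathHunter D2 cells, attached overnight at 37 deg C, received compound in DMSO plus dopamine at EC20 (50 nM final) for 90 min at 37 deg C. Beta-arrestin recruitment was read as luminescence after 1 h with detection reagent at ambient temperature.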
ClpP mod – qHTS Assay for Activators of ClpP | AID 651965, 2013 | Potency, µM (titrated, usually from 57.5 µM), without a hit: at the top dose activity change, negative = active | 340,000 compounds, 1.9% hits | ATP-dependent Clp protease proteolytic subunit (Bacillus subtilis (strain 168)), P80244 | purified B. subtilis ClpP, FRET peptide cleavage, 20 min; active = well fitted falling curve with a large enough effect; inconclusive = small, poorly fitted or top-dose-only effect; inactive = no such curve, though single readings can be large or run the other way; also: potency is read from the fitted curve at half-maximal effect; the source files actives as falling curves though it sought activators and does not explain the sign; nearly all actives have a fitted effect of over 65% in size; many hits overshoot -100%
Target sequence (P80244 whole entry, looked up): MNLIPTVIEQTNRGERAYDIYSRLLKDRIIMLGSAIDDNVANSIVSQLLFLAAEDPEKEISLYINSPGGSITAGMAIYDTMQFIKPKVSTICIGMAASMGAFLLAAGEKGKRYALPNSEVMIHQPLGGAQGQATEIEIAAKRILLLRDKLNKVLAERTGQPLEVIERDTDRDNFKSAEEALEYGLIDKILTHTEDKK
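FRET quenching reversal measured ClpP activation: 10 microg/mL B. subtilis ClpP at pH 8 with the FRET-FV decapeptide, read at 430 nm after 320 nm excitation. The 20-min minus 0-min signal was scaled between DMSO/no-enzyme wells and ADEP (5.8 microM final).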
gsp ag – gsp mutant agonism. gsp mutant cells, cAMP HTRF, 30 min; control for the full effect not named in the record. Potency, µM (doses to about 76.9 µM), for inactives: top-dose activation (cAMP increase), actives largely listed as activators. 340,000 compounds, 0.13% hits. AID 624287; active = well fitted activation curve with a large enough effect; inconclusive = small, poorly fitted or top-dose-only effect, or another doubt; inactive = no such curve, though single readings can be large or run the other way; cell line not stated here;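 also: phosphodiesterase inhibitor Ro 20-1724 added with compounds to block cAMP breakdown; potency is read from the fitted curve at half-maximal effect; nearly all actives have a fitted effect of over 60% in size; about a fifth of the inactives were tested at one dose only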
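Cells in DMEM/10% FBS with G418 were pretreated with compounds in DMSO plus […] (300 uM stock) for 30 min at 37C. cAMP was measured by HTRF (cAMP-d2 plus anti-cAMP antibody-K) after 30 min at room temperature.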
Starred values were filed as active, the others as inactive; ? = inconclusive; . = not tested or not shown; [ ] = remark or other dose. Rows were taken by chance. Share with any hit: about 5.1%.

The opening 11 records, ahead of the listing:
Short forms: A = Menin MLL FP FL; B = gsp antagonist; C = Sfp inh; D = TRPV1 potentiator; E = D2 potentiator; F = ClpP mod; G = gsp ag
canonical_smiles: O=C(C[C@H]1C/C=C\CC[C@@H](Cc2ccc(F)cc2)C(=O)OC[C@H]2CCCN2C1=O)N[C@@H](CO)Cc1ccccc1
  A: . | B: -23% | C: . | D: . | E: -2 | F: -1.4% | G: .

canonical_smiles: COc1ccc(CC(NC(C)=O)C(=O)N2CCN(C(=O)Nc3ccc(Cl)cc3)CC2)cc1OC (stereo unspecified)
  A: 3.3 | B: -3% | C: 12% | D: 5 | E: -6 | F: 1.8% | G: 5%

canonical_smiles: CNS(=O)(=O)c1cc(Br)ccc1S(=O)c1ccccc1C(=O)O (stereo unspecified)
  A: 3.9 | B: 13% | C: 0% | D: -10 | E: 0 | F: . | G: -14%

canonical_smiles: C#CCNC(=O)C1CCN(c2cc(C)nc(-c3ccccc3)n2)CC1
  A: -0.1 | B: -12% | C: 14% | D: -11 | E: -8 | F: . | G: 10%[15.4 µM]

canonical_smiles: O=C(CN1C(=O)CSc2ccccc21)NCCC1=CCCCC1
  A: 7.2 | B: 9% | C: 22% | D: 0 | E: 0 | F: 0.7% | G: -30%[inhibitor]

canonical_smiles: O=[N+]([O-])c1ccc(Cc2cncc(O)c2)cc1
  A: -9.1 | B: -3% | C: 14% | D: 15 | E: -5 | F: 0.8% | G: -17%

canonical_smiles: O=C1N=C2SCCN2/C1=C\c1ccccc1Cl
  A: 2.6 | B: -4% | C: 0% | D: -10 | E: -12 | F: -1.6% | G: 25%

canonical_smiles: CCOc1ccc(S(=O)(=O)N2CCCC(C(=O)N3CCN(c4ccccc4)CC3)C2)cc1 (stereo unspecified)
  A: . | B: -5% | C: 21% | D: 4 | E: 0 | F: -2.7% | G: -4%

canonical_smiles: COC(=O)c1ccc(Oc2ccc(C(F)(F)F)cn2)cc1
  A: -2.0 | B: 12% | C: 16% | D: 1 | E: 1 | F: . | G: -8%

canonical_smiles: c1ccc(-c2cc3c(nn2)CCc2nonc2-3)cc1
  A: ? | B: -2% | C: 3% | D: ? | E: -2 | F: 1.6% | G: -19%

canonical_smiles: O/N=C1\CC/C(=N\O)c2nn(-c3ccccc3Cl)nc21
  A: 2.3 | B: 14% | C: 6% | D: 0 | E: -7 | F: -0.7% | G: -18%

The list itself, previewed entries included:
Short forms: A = Menin MLL FP FL; B = gsp antagonist; C = Sfp inh; D = TRPV1 potentiator; E = D2 potentiator; F = ClpP mod; G = gsp ag
canonical_smiles: O=C(C[C@H]1C/C=C\CC[C@@H](Cc2ccc(F)cc2)C(=O)OC[C@H]2CCCN2C1=O)N[C@@H](CO)Cc1ccccc1
  A: . | B: -23% | C: . | D: . | E: -2 | F: -1.4% | G: .

canonical_smiles: COc1ccc(CC(NC(C)=O)C(=O)N2CCN(C(=O)Nc3ccc(Cl)cc3)CC2)cc1OC (stereo unspecified)
  A: 3.3 | B: -3% | C: 12% | D: 5 | E: -6 | F: 1.8% | G: 5%

canonical_smiles: CNS(=O)(=O)c1cc(Br)ccc1S(=O)c1ccccc1C(=O)O (stereo unspecified)
  A: 3.9 | B: 13% | C: 0% | D: -10 | E: 0 | F: . | G: -14%

canonical_smiles: C#CCNC(=O)C1CCN(c2cc(C)nc(-c3ccccc3)n2)CC1
  A: -0.1 | B: -12% | C: 14% | D: -11 | E: -8 | F: . | G: 10%[15.4 µM]

canonical_smiles: O=C(CN1C(=O)CSc2ccccc21)NCCC1=CCCCC1
  A: 7.2 | B: 9% | C: 22% | D: 0 | E: 0 | F: 0.7% | G: -30%[inhibitor]

canonical_smiles: O=[N+]([O-])c1ccc(Cc2cncc(O)c2)cc1
  A: -9.1 | B: -3% | C: 14% | D: 15 | E: -5 | F: 0.8% | G: -17%

canonical_smiles: O=C1N=C2SCCN2/C1=C\c1ccccc1Cl
  A: 2.6 | B: -4% | C: 0% | D: -10 | E: -12 | F: -1.6% | G: 25%

canonical_smiles: CCOc1ccc(S(=O)(=O)N2CCCC(C(=O)N3CCN(c4ccccc4)CC3)C2)cc1 (stereo unspecified)
  A: . | B: -5% | C: 21% | D: 4 | E: 0 | F: -2.7% | G: -4%

canonical_smiles: COC(=O)c1ccc(Oc2ccc(C(F)(F)F)cn2)cc1
  A: -2.0 | B: 12% | C: 16% | D: 1 | E: 1 | F: . | G: -8%

canonical_smiles: c1ccc(-c2cc3c(nn2)CCc2nonc2-3)cc1
  A: ? | B: -2% | C: 3% | D: ? | E: -2 | F: 1.6% | G: -19%

canonical_smiles: O/N=C1\CC/C(=N\O)c2nn(-c3ccccc3Cl)nc21
  A: 2.3 | B: 14% | C: 6% | D: 0 | E: -7 | F: -0.7% | G: -18%

canonical_smiles: O=C(Nc1nccs1)c1ccc(COc2ccc(Cl)cc2)o1
  A: 0.6 | B: 4% | C: -8% | D: 13 | E: -2 | F: -4.0% | G: -43%

canonical_smiles: Cn1c(=O)c2[nH]c(CCC3CCCC3)nc2n(C)c1=O
  A: . | B: -7% | C: . | D: . | E: -15 | F: -3.0% | G: ?

canonical_smiles: CCC(C)(C)NC(=O)Cc1ccc(OC)c(OC)c1
  A: 2.6 | B: 0% | C: 2% | D: -13 | E: 16 | F: 0.1% | G: -8%

canonical_smiles: COCCNC(=O)c1cccc(OC2CCN(Cc3ccc(F)c(OC)c3)CC2)c1
  A: 0.8 | B: 5% | C: 9% | D: -1 | E: -21 | F: . | G: -35%[inhibitor]

canonical_smiles: C#CCOCCOCCOCCNc1nc(N2CCN(C(=O)[C@H]([C@@H](C)CC)n3cc([C@@H](N)CO)nn3)CC2)nc(N2CCN(C(=O)[C@H]([C@@H](C)CC)n3cc([C@@H](N)CC(C)C)nn3)CC2)n1
  A: ? | B: 8% | C: 8% | D: 1 | E: -7 | F: 1.1% | G: ?

canonical_smiles: NC(=O)C1CCN(C(=O)CSc2ncccn2)CC1
  A: 0.5 | B: 3% | C: 18% | D: -6 | E: -3 | F: 1.4% | G: ?

canonical_smiles: Cc1ccc(C2CCN(C(=O)Nc3ccccc3)C2)cc1 (stereo unspecified)
  A: 6.9 | B: 4% | C: 6% | D: 0 | E: -14 | F: -0.7% | G: -19%

canonical_smiles: O=C(CN1CCN(C(=O)CN2C(=O)NC3(CCCC3)C2=O)CC1)Nc1cccc(F)c1
  A: . | B: 12% | C: . | D: -15 | E: -21 | F: 0.8% | G: 7%[15.4 µM]

canonical_smiles: NC(=O)CC(NC(=O)c1ccccc1)c1ccc(NC2CCCC2)c([N+](=O)[O-])c1 (stereo unspecified)
  A: -1.1 | B: 2% | C: 2% | D: -4 | E: -11 | F: -1.3% | G: .

canonical_smiles: COc1cc(/C=C/C(=O)OCC(=O)Nc2ccccc2Sc2ccc(Cl)cc2)ccc1O
  A: 13 | B: ? | C: -19% | D: -3 | E: 29 | F: -27% | G: -4%

canonical_smiles: O=C(NCCNC(=O)Nc1ccc(Cl)cc1)Nc1ccc(Cl)cc1
  A: . | B: -4% | C: . | D: . | E: -14 | F: -6.5% | G: -29%

canonical_smiles: NNc1nnc2c3cc(F)ccc3n(CCc3ccccc3)c2n1
  A: -6.2 | B: -21% | C: -13% | D: 6 | E: 3 | F: . | G: -22%

canonical_smiles: Cc1cc(NC(=O)c2ccccc2)cc(NC(=O)c2ccccc2)c1C
  A: 5.6 | B: -2% | C: 1% | D: -1 | E: 4 | F: -0.3% | G: 8%[15.4 µM]

canonical_smiles: Cc1ccc2[nH]c(=O)c(CC=C(Cl)Cl)c(C)c2c1
  A: 8.7 | B: 14% | C: 16% | D: 4 | E: 2 | F: . | G: 14%

canonical_smiles: COc1ccc(C)cc1NC(=O)C(NCC(O)c1ccccc1)c1ccccc1 (stereo unspecified)
  A: 5.8 | B: ? | C: ? | D: -16 | E: -7 | F: 0.5% | G: -12%

canonical_smiles: CCOc1ccc(NC(=O)c2ccc3c(c2)N(C)CCS3)cc1
  A: . | B: . | C: . | D: . | E: -14 | F: 3.8% | G: 21%

canonical_smiles: Cc1ccccc1Cn1ccc(-c2ccc3c(c2)OCO3)n1
  A: -1.4 | B: -29% | C: -21% | D: -2 | E: 10 | F: -4.2% | G: 3%

canonical_smiles: O=C(c1ccco1)N1CCN(S(=O)(=O)c2c(Cl)cccc2Cl)CC1
  A: -2.3 | B: 0% | C: 6% | D: -3 | E: -13 | F: -2.0% | G: 25%

canonical_smiles: CC1CCCC(NC(=O)COC(=O)[C@@H](NC(=O)c2ccccc2Cl)C(C)C)C1C (stereo partly specified)
  A: . | B: -2% | C: . | D: . | E: -3 | F: -4.4% | G: ?

canonical_smiles: Cc1ccc(Nc2ccncc2S(N)(=O)=O)cc1
  A: . | B: 6% | C: . | D: . | E: -1 | F: 3.2% | G: 6%

canonical_smiles: O=C(Nc1ccc2c(c1)OCO2)c1n[nH]c(=O)c2ccccc12
  A: 1.2 | B: 9% | C: 7% | D: 25 | E: -11 | F: -3.6% | G: 14%

canonical_smiles: Cc1ccccc1N(CC(=O)N/N=C/c1cc(Br)c(C)o1)S(C)(=O)=O
  A: 1.5 | B: -1% | C: 6% | D: 16 | E: -6 | F: -1.6% | G: 1%

Bioassay records: PubChem BioAssay, National Center for Advancing Translational Sciences (NCATS)
